Assay outcomes deposited in PubChem by National Center for Advancing Translational Sciences (NCATS).
Bst PK mod = Pyruvate Kinase. partly purified Bacillus stearothermophilus pyruvate kinase, luminescence ATP production; ribose 5-phosphate activator present at AC10. 51,000 tested, 1.2% active. Potency, µM; in the data active means potency below about 11 µM; inconclusive means mostly about 12 µM to 25 µM; inactive means weaker than that;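 the screen sought inhibitors and activators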;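 further: potency means the concentration at half of the fitted maximal effect; scaled between full activation by ribose 5 phosphate and full inhibition by luteolin; about four in five hits inhibit and the cells do not say which; series up to 57 µM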
TsaE inh = qHTS Assay for Inhibitors of YjeE. AID 605, 2007. Potency, µM. 71,000 tested, 0.05% active. purified YjeE, fluorescence polarisation of a bound ADP probe; active = well fitted falling curve; inconclusive = weaker or top-dose-only fall, or a rising curve; inactive = flat or poorly fitted curve;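 further: top concentration of the series not given in the record; excess ADP was the control for the full effect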
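Fluorescence polarization of a BODIPY Texas Red–ADP probe (2 uM) bound to purified YjeE (10 uM) was read after 15 min room-temperature incubation with compounds. Loss of polarization marks inhibitors; ADP serves as titrated control.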
* = called active by the depositor; i = inactive; ? = inconclusive; . = no result given. Only part of the results is shown; rates above refer to the full screens.

SMILES	Bst PK mod	TsaE inh
COc1ccc(-c2nc3n(n2)C(c2ccccc2Cl)C(C(N)=O)=C(C)N3)cc1 (configuration not stated)	.	i
Cc1nn2c(N3CCN(c4ccccn4)CC3)cc(C(C)C)nc2c1-c1ccccc1	>57	i
COc1ccc(Cn2c(CCCO)nc3ccccc32)cc1OC	>25.6	.
CC(C)COC(=O)n1c(SCC(=O)N(C)C)nc2ccccc21	>57	i
O=C(CCc1nc(-c2ccccc2)no1)NCC1CCCO1 (configuration not stated)	>57	i
COc1cc2cc(CN(CCO)S(=O)(=O)c3ccccc3Cl)c(=O)[nH]c2cc1OC	>57	i
CC(C)NC[C@H](O)COc1cccc2[nH]ccc12	.	i
CCOC(=O)CSc1nnc(Cn2nnc(-c3ccccc3)n2)n1C	>57	i
COc1ccc(Oc2ncc3nc(-c4ccc(Cl)cc4)c(=O)n(C4CC4)c3n2)cc1	.	i
COc1ccc(NC(=O)N(Cc2ccc(C)cc2)Cc2ccccn2)c(OC)c1	.	i
COc1cc2c(cc1NCc1ccccn1)oc1ccccc12	i	i
Cc1nnc(SCc2ccc(Cl)cc2)n1CC1CCCO1 (configuration not stated)	>57	i
Oc1ccc(CN2CCCCC2)nc1-c1ccccc1	>57	i
Cc1nn(-c2ccccn2)c2c1-c1nc(N)ncc1CC2	?	i
CCC1=C(C(=O)OC)C(c2cc(OC)ccc2OC)C(C#N)=C(N)O1 (configuration not stated)	>25.6	.
O=C(Nc1cn(-c2ccccc2)nc1-c1cccs1)c1ccco1	.	i
CN(C)CCCNC(=O)CC(c1ccccc1)c1ccccc1O (configuration not stated)	>57	i
CCC1c2ccc(C)n2CCN1C(=O)Nc1ccc(F)cc1 (configuration not stated)	>57	i
COC(=O)NCc1ccc(Cl)c(Cl)c1	.	i
COc1ccc(NC(=O)c2ccccc2NS(C)(=O)=O)cc1OC	>57	i
c1ccc2c(c1)[nH]c1c(NCC3CCCO3)ncnc12 (configuration not stated)	.	i
Nc1nnc(-c2cc3ccccc3oc2=O)s1	.	i
COc1ccc(C2C(C(=O)c3cccs3)=C(O)C(=O)N2c2nncs2)cc1 (configuration not stated)	.	i
CSc1nsc(SC)c1NC(=O)OCc1ccccc1	>57	i
C=CCn1c(NC(=O)c2ccc(C)cc2)c(C#N)sc1=N	>57	i

Next section
SMILES	Bst PK mod	TsaE inh
CCOC(=O)C1=C(c2ccccc2)OC(N)=C(C#N)C1C(C)C (configuration not stated)	>57	i
O=C(Nc1nncs1)c1ccc(N2C(=O)C3C4C=CC(C4)C3C2=O)cc1 (configuration not stated)	>57	i
c1ccc(CSc2nnc(-c3ccncc3)o2)cc1	.	i
CSC1=C(C#N)C(c2cccc(Br)c2)CC(=O)N1 (configuration not stated)	>11.4	i
Cc1c(C(=O)CN2CCOCC2)[nH]c2ccccc12	>57	i
N#C/C(=C(/O)CN1CCOCC1)c1nc2ccccc2s1	>57	i
COc1ccc(NC(=O)C2CCCN2c2ccc(OC)c(OC)c2)cc1OC (configuration not stated)	>57	i
CCCS(=O)(=O)c1c(S(=O)(=O)CCC)c2c3ccccc3ccn2c1C(N)=O	.	i
COCC(=O)N(Cc1ccc(OC)cc1)Cc1nc2ccccc2c(=O)[nH]1	>57	i
O=C(CSc1nc(O)c(Cc2ccccc2F)c(=O)[nH]1)N1CCCCCC1	>57	i
CC(C)OC(=O)CN1C(=O)C(C)(C)Oc2ccc(C(=O)NC3CC3)cc21	>57	i
O=C(CSc1nc(N2CCCCC2)nc(N2CCCCC2)n1)c1ccccc1	>57	i
CCn1c(CNC(=O)c2ccccc2)nc2ccccc21	>57	i
CN(C)S(=O)(=O)c1ccc(NC(=O)C2COc3ccccc3O2)cc1 (configuration not stated)	.	i
CCOc1cccc(NC(=O)CSc2nncn2N)c1	>57	i
Cc1cccc(N2CCN(S(C)(=O)=O)CC2)c1C	.	i
COC(=O)c1ccc(C)c(NC(=O)CN(c2cc(OC)ccc2OC)S(C)(=O)=O)c1	.	i
COc1ccc(C)cc1NC(=O)CSc1nnc(-c2ccc(Br)cc2)o1	>57	i
COc1ccc(-c2oc(/N=C/N3CCOCC3)c(C#N)c2-c2ccc(OC)cc2)cc1	.	i
Oc1ccc(-c2nc3ccccn3c2NCc2ccc3c(c2)OCO3)cc1	.	i
Nc1cc(C(=O)O)ccc1Nc1ccccc1	.	i
CCOC(=O)c1cc2c(=O)n3ccccc3nc2n(CCOC)c1=NC(=O)C(C)(C)C	>57	i
CN(c1ccccc1)C(c1ccc(F)cc1)c1nnnn1C1CCCC1 (configuration not stated)	>57	i
COC(=O)c1ccc(C(NC(=O)OCc2ccccc2)/C(F)=C/[C@@H](C)C(=O)NC2CCCCC2)cc1 (some centres not stated)	.	i
CCOc1cc(NC(=O)C2CCCO2)c(OCC)cc1NC(C)=O (configuration not stated)	>57	i

The listing continues.
SMILES	Bst PK mod	TsaE inh
CCOC(=O)Cc1c(C)nc2c(C#N)c(C)nn2c1C	>57	i
COc1ccc(Cc2nc(-c3ccccc3)no2)cc1	>57	i
O=C1C2C3C=CC(C3)C2C(=O)N1CNc1ccccc1 (configuration not stated)	.	i
c1coc(CN2CN=C(Nc3nc4ccccc4s3)NC2)c1	>57	i
COc1cccc2c(=O)c(C/C=C(/C)Cl)c(C)[nH]c12	.	i
CC1CC(C)CN(C(=O)COC(=O)c2cc3ccccc3cc2O)C1 (configuration not stated)	>57	i
CC1(C)S[C@@H]2[C@H](NC(=O)C3(N)CCCCC3)C(=O)N2[C@@H]1C(=O)O	.	i
CCOc1ccc(-c2nnn(CC(=O)NCc3ccc(F)cc3)n2)cc1OCC	>57	i
CC1CC(C)CN(C(=O)Cn2c(=O)n(CCCCC(=O)NCc3ccco3)c(=O)c3ccccc32)C1 (configuration not stated)	>57	i
CC1Oc2ccccc2N(Cc2ccccc2Cl)C1=O (configuration not stated)	>57	i
COc1cc(NC(=O)c2c(F)c(F)c(F)c(F)c2F)c(OC)cc1Cl	>57	i
CCCCN(C(=O)Cn1nnc2ccccc21)C(C(=O)NCCOC)c1ccc(OC)cc1 (configuration not stated)	>57	i
O=C(Nc1ccccc1)N1CCCCC1c1cccnc1 (configuration not stated)	>57	i
CC(C)(O)C#Cc1ccc(C(=O)N2CCCC2C(=O)O)s1 (configuration not stated)	>57	i
O=C(CSc1ccc2c(c1)OCCO2)NCCN1C(=O)CSC1=O	>57	i
COc1cccc(NC(=O)c2ccccc2NS(C)(=O)=O)c1	>57	i
O=C(CCn1nc(-c2ccccc2)c2ccccc2c1=O)N1CCN(c2ccccc2)CC1	>57	i
c1ccc(-c2nc(NCC3CCCO3)c3ccccc3n2)nc1 (configuration not stated)	>11.4	.
N#CCSc1nc2c(c(=O)n1Cc1ccco1)C1(CCCC1)Cc1ccccc1-2	>25.6	.
CC(C)[C@@H](CC(=O)N[C@@H]1CCNC[C@H]1C(=O)N[C@H](CC(=O)N[C@@H](CCC(=O)O)CC(=O)O)Cc1ccccc1)NC(=O)C[C@H](Cc1c[nH]c2ccccc12)NC(=O)[C@@H]1CCCC[C@H]1N	.	?
CC1(C)CC(=O)C2=C(C1)NCN(Cc1ccccc1)C2	>57	i
O=C1C2C3C=CC(C3)C2C(=O)N1CCCO (configuration not stated)	>57	i
COC(=O)COc1cccc(NC(=O)c2ccccc2)c1	>57	i
CCOC(=O)c1c(C)c(C(=O)NCC2CCCO2)c(C)n1C (configuration not stated)	>57	i
CCOC(=O)c1ccc(N2C(=O)CC(N3CC(C)OC(C)C3)C2=O)cc1 (configuration not stated)	>57	i

Another view of two compounds above.
Value order – Bst PK mod | TsaE inh
- c1ccc(-c2nc(NCC3CCCO3)c3ccccc3n2)nc1 (configuration not stated)
  >11.4 | .
- N#CCSc1nc2c(c(=O)n1Cc1ccco1)C1(CCCC1)Cc1ccccc1-2
  >25.6 | .

New compounds follow
SMILES	Bst PK mod	TsaE inh
Cc1cccc(NC(=O)C2CCCN(C(=O)NC3CCCCC3)C2)c1C (configuration not stated)	>57	i
C=CCN1CCN(c2nc3ccccc3nc2C#N)CC1	.	i
COCCn1c(SCc2ccc(C(=O)OC)o2)nc2cc(Cl)ccc2c1=O	>57	i
CC12C(=O)N(Cc3ccccc3)C(=O)C1C1C=CC2C1 (configuration not stated)	>57	i
CC(NC(=O)c1cc(-c2ccc(O)cc2)on1)c1ccccc1 (configuration not stated)	.	i
C/C(Cl)=C/Cn1c(SCCN2CCOCC2)nc2c1c(=O)[nH]c(=O)n2C	>57	i
CCOC(=O)N1CCN(C(=O)c2ccc3c(=O)n(-c4ccc(OC)cc4)c(=S)[nH]c3c2)CC1	>57	i
Cc1cc(C(=O)N2CCN(CCc3ccccc3)CC2)no1	>57	i
CC1Cc2nc(SCC(=O)OCc3ccccc3)n(C)c(=O)c2S1 (configuration not stated)	.	i
O=C(c1csnn1)N1CCC2(CC1)CN(C(c1ccccc1)c1ccccc1)C2	.	i
CCCOc1ccc(C(=O)NCc2cccnc2)cc1	>57	i
CC(=O)Nc1ccc(S(=O)(=O)N2CCSCC2)cc1	.	i
CCn1cc(C(=O)OCc2ccccc2)c(=O)c2ccc(C)nc21	.	i
Cn1c(-c2ccccc2)cccc1=O	>57	i
CCS(=O)(=O)Nc1c(C(=O)OC)[nH]c2ccccc12	>57	i
CCOc1ccc(Cn2nnc(C(=O)NCc3ccc(OC)cc3)c2N)cc1	.	i
O=C(CCCN1C(=O)CSc2ncccc21)N1CCN(c2cccc(C(F)(F)F)c2)CC1	>57	i
O=C(CN(Cc1ccc2c(c1)OCO2)C(=O)CNC(=O)c1ccco1)NC1CCCCC1	>57	i
C[C@@H]1CN(CCCn2c3ccccc3c3ccccc32)C[C@H](C)N1	.	i
O=C1CC(c2c[nH]c3ccccc23)C(=O)N1 (configuration not stated)	>57	i
CCN(CC)CCCn1c(-c2ccccc2)nc2c(NCc3ccccc3)nc(C)nc21	.	i
CC(C)(/C=N/O)/[N+]([O-])=C/c1ccccc1C(F)(F)F	>57	i
CC1(C)N=C(/C=N/O)CN1O	>57	i
CC(=O)Nc1cccc2c1OCCO2	>57	i
C=CCNC(=O)C(C#N)c1nc2ccccc2nc1N1CCCCCC1 (configuration not stated)	>25.6	.

Next part:
SMILES	Bst PK mod	TsaE inh
Cc1ccc(/C=c2\sc3nc(-c4ccccc4Br)nn3c2=O)o1	>57	i
Cc1cc(OCC(=O)c2ccc(F)cc2)ccc1N1C(=O)CCC1=O	>57	i
Cc1cccc(C)c1N1C(=O)CC(N(O)c2ccccc2)C1=O (configuration not stated)	>57	i
COCCCn1c(SCC(=O)OC2CCCCC2)nnc1-c1cccs1	.	i
O=C(CN1CCC(Cc2ccccc2)CC1)NC(=O)NCc1ccco1	>57	i
Cc1ccc(N(CN2CCCC2=O)C(=O)c2ccc(OC(C)C)cc2)cc1	>57	i
Cc1ccc(S(=O)(=O)NC2=NCN(C3CCN(Cc4ccccc4)CC3)CN2)cc1	>57	i
Cc1nn(Cc2ccc(F)cc2)c(C)c1NC(=O)c1cc(-c2ccc3c(c2)OCO3)on1	>57	?
CC(=O)N1c2ccc(S(=O)(=O)CCC(=O)O)cc2CC1C (configuration not stated)	>57	i
COc1ccc(C2c3c(oc4ccc(F)cc4c3=O)C(=O)N2CCN2CCOCC2)cc1OC (configuration not stated)	.	i
O=C(O)c1ccc(F)c(S(=O)(=O)Nc2ccccc2)c1	.	i
CCOc1ccc(N2CC(C(=O)Nc3cccc(C)c3C)CC2=O)cc1 (configuration not stated)	>57	i
Cc1cccc(C)c1OC[C@H](C)N	.	i
CNC(=O)C1C2C=CC3(O2)C1C(=O)N(C1CC1)C3C(=O)NCc1ccc(OC)cc1 (configuration not stated)	>57	i
COC(=O)CSC1=C(C#N)C(c2ccccc2OC)C(C(=O)OC)C(=O)N1 (configuration not stated)	.	i
Cc1c(C(=O)N2CCCCC2)sc(NC(=O)C(C)C)c1C#N	>57	i
COc1ccc(CCNC(=O)C2CCCN(S(C)(=O)=O)C2)cc1OC (configuration not stated)	>57	i
COc1cccc(OCc2nnc(SCC(=O)NCc3ccco3)n2CCc2ccccc2)c1	>57	i

Entries from the list above containing an aryl thioether with sulfur outside any ring:
SMILES	Bst PK mod	TsaE inh
CC(C)COC(=O)n1c(SCC(=O)N(C)C)nc2ccccc21	>57	i
CCOC(=O)CSc1nnc(Cn2nnc(-c3ccccc3)n2)n1C	>57	i
Cc1nnc(SCc2ccc(Cl)cc2)n1CC1CCCO1 (configuration not stated)	>57	i
CSc1nsc(SC)c1NC(=O)OCc1ccccc1	>57	i
c1ccc(CSc2nnc(-c3ccncc3)o2)cc1	.	i
O=C(CSc1nc(O)c(Cc2ccccc2F)c(=O)[nH]1)N1CCCCCC1	>57	i
O=C(CSc1nc(N2CCCCC2)nc(N2CCCCC2)n1)c1ccccc1	>57	i
CCOc1cccc(NC(=O)CSc2nncn2N)c1	>57	i
COc1ccc(C)cc1NC(=O)CSc1nnc(-c2ccc(Br)cc2)o1	>57	i
O=C(CSc1ccc2c(c1)OCCO2)NCCN1C(=O)CSC1=O	>57	i
N#CCSc1nc2c(c(=O)n1Cc1ccco1)C1(CCCC1)Cc1ccccc1-2	>25.6	.
COCCn1c(SCc2ccc(C(=O)OC)o2)nc2cc(Cl)ccc2c1=O	>57	i
C/C(Cl)=C/Cn1c(SCCN2CCOCC2)nc2c1c(=O)[nH]c(=O)n2C	>57	i
CC1Cc2nc(SCC(=O)OCc3ccccc3)n(C)c(=O)c2S1 (configuration not stated)	.	i
COCCCn1c(SCC(=O)OC2CCCCC2)nnc1-c1cccs1	.	i
COc1cccc(OCc2nnc(SCC(=O)NCc3ccco3)n2CCc2ccccc2)c1	>57	i
